Env fusion inh: blocks HIV Env-driven cell-cell fusion; HeLa-JRFL Env/CEM21 cell fusion, luciferase; inhibition, % at 12.3 µM; 1.1% of 360,000 active;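 active = mean replicate inhibition score of at least 50 and every replicate individually at or above 50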;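 also: 0% = plate neutral controls and 100% = maraviroc near 300 nM; one replicate is shown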
MT1-MMP act inh: blocks activation of human MT1-MMP | GFP/RFP ratio change, % at 20 µM | 0.061% of 360,000 active | HT1080 RFP-PRO-GFP cells, GFP/RFP ratio fluorescence, overnight; percent of plate control window, DMSO zero;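 active = GFP/RFP ratio change of at least 30% with cell ATP level not reduced by more than half and red fluorescence within 50% of control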; also: strong numbers were not always called active
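Test system: HT1080 RFP-PRO-GFP cells; Benchmarks: DMSO and RFP-L50D-GFP cell wells; Timing: cells overnight before dosing, compound overnight, 37 °C, 5% CO2; Compound: one 20 µM compound dose with 1% DMSO; Read-out: GFP/RFP fluorescence ratio.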
eIF4H inh: inhibitors of RNA binding by human eIF4H; eIF4H fluorescence polarization binding assay; inhibition, % at 35 µM; 0.94% of 290,000 active; AID 2012;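 active = 50% or more with normal probe brightness, or confirmed in later tests; about a fifth of its hits are not listed in these tables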;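 also: calls also rest on retests at 20 µM and on dose response follow-up; 0% = protein and probe with vehicle and 100% = probe without protein; strong numbers were not always called active; many hits fall short of the cut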
PABP polyA inh: PABP-poly(A) binding inhibition; PABP-poly(A) RNA binding, fluorescence polarization; inhibition, % at 35 µM; AID 2014; 1% of 290,000 active;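 active = 50% or more with normal probe brightness, or confirmed in later tests; about a fifth of its hits are not listed in these tables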;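 also: calls also rest on retests at 20 µM and on dose response follow-up; controls were probe without protein and protein plus probe with vehicle; some compounds called inactive have numbers as strong as hits; many hits fall short of the cut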
Target sequence (P11940 whole entry, looked up): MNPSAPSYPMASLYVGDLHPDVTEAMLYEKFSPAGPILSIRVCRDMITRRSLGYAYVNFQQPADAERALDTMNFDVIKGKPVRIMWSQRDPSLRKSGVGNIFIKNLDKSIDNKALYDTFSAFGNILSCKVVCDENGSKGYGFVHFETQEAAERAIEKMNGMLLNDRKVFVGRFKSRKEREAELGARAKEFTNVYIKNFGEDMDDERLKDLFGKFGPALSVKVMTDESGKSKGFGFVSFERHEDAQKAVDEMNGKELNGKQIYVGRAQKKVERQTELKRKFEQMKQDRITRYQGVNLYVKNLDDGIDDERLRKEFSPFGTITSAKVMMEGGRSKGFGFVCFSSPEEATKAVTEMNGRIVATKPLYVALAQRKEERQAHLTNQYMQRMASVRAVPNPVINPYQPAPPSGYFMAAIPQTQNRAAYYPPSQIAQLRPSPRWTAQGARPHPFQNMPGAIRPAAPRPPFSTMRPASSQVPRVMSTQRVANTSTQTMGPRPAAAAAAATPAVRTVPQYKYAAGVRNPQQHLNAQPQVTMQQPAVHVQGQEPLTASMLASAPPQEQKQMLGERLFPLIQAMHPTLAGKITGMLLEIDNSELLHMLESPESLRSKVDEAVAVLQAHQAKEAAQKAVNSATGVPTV
Yeast UUG start: yeast start codon fidelity modulation. AID 602363. S. cerevisiae UUG-firefly luciferase reporter, luminescence/redox ratio. activity score, % at 18.7 µM. 0.13% of 350,000 active;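 active = replicate mean at a twofold rise or more, about +100% in these data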;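 also: firefly luciferase made from a UUG start codon reports start codon fidelity; reporter light over untreated wells divided by growth signal over untreated wells; some hits fall short of that in this replicate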
CSC inhib: cancer stem cell inhibition. cancer stem cell-like cells viability, luminescence. inhibition, % at 7.5 µM. 1.1% of 300,000 active;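 active = mean at 75% or more and at least half the replicates too; tested in HMLE shEcad cells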;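 also: 0% = median of negative and 100% = median of positive control wells; the first replicate is given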
Rce1 inhib: blocks yeast Ras-converting enzyme; Q03530; yeast membranes, quenched prenylated peptide cleavage fluorescence; 0.27% of 290,000 active; calls only; AID 2563;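 active = fall in fluorescence gain of 50% or more versus controls, with final raw signal at or below 3038400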;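 also: plate controls were neutral control wells for no effect and wells lacking membranes for full effect; tested at 10 µM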
MT1-MMP act inh RFP: second read-out of MT1-MMP act inh, no call of its own (marks repeat the call); RFP signal change, %; measured here: RFP expression control read;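 0 = vehicle wells; hits needed this value within 50% of zero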
The depositor's hits bear a star; i = inactive; x = not tested or not shown. The list is partial; rates above refer to the full screens.

SMILES | Env fusion inh | MT1-MMP act inh | MT1-MMP act inh RFP | eIF4H inh | PABP polyA inh | Yeast UUG start | CSC inhib | Rce1 inhib
C[C@@H](NC(=O)[C@H]1O[C@@H](n2cnc3c(N)ncnc32)[C@H](O)[C@@H]1O)c1cccc2ccccc12 | 7 | 0 | 1 | x | x | 7 | x | x
O=C(Nc1cc(F)cc(F)c1)c1sc(Cl)nc1-c1ccccc1 | x | -6 | -4 | 12 | -3 | -8 | -6 | i
COc1ccc2oc(=O)c(C(=O)Nc3ccccc3C)cc2c1 | -125 | -6 | -8 | -6 | 8 | -25 | -13 | i
O=C(Nc1ccccc1C(=O)Nc1ccccn1)c1ccc([N+](=O)[O-])cc1 | -2 | 0 | -3 | 1 | 3 | x | 8 | i
Cc1cccc(CN2CCC(CNC(=O)Nc3ccc(F)c(Cl)c3)CC2)c1 | 17 | 3 | -10 | -11 | -10 | -9 | 18 | i
CCC(C(=O)OCC(=O)C1(O)CCC2C3CCC4=CC(=O)CCC4(C)C3C(O)CC21C)C(C)C (stereo not given) | -10 | -1 | -22 | x | x | -2 | x | x
COc1ccc(OCCCC(=O)Nc2ccc(N3CCCCC3)cc2)cc1 | -32 | 11 | 3 | -6 | -5 | x | -10 | i
O=C(COC(=O)/C=C/c1ccccc1Cl)NC1CCCCCC1 | -24 | 3 | 7 | -6 | -15 | -6 | 5 | x
CCCc1nnc(SCC(=O)NC2CCCCC2)n1CCOC | -8 | 2 | 5 | -4 | -15 | -11 | 0 | x
O=C(N/N=C/c1cn(-c2ccccc2)nc1-c1ccc(F)cc1)c1ccc(Br)o1 | x | -2 | -10 | -4 | -15 | -4 | 31 | i
NC(=O)c1ccc(N=Nc2c(-c3ccccc3)[nH]n(-c3ccccc3)c2=O)cc1 | -4 | x | x | 14 | 3 | x | -8 | i
CN1C[C@@H]2[C@@H]3C(=O)N(Cc4ccccc4)C(=O)[C@@H]3[C@](Cc3ccccc3)(C1=O)N2C(=O)c1ccc(F)cc1 | 3 | 3 | 5 | x | x | 7 | x | x
C=CCNCc1ccc(C(=O)NCCCCCCC)cc1[N+](=O)[O-] | 24 | 7 | -6 | x | x | -14 | -5 | i
CSc1nnc(C)c(/C=C/Nc2ccc(Cl)cc2)n1 | x | -8 | 5 | 0 | 5 | -20 | 3 | i
CCCCN1C(=O)CC(SC2CC(=O)N(CCCC)C2=O)C1=O (stereo not given) | -12 | -2 | 4 | x | x | -8 | x | x
O=C(Cn1ccccc1=O)Nc1ccc(Cl)c(S(=O)(=O)N2CCCCC2)c1 | x | 9 | -14 | x | x | -9 | 3 | x
COc1ccc(C(CC(=O)O)NC(=O)COc2ccccc2)cc1OC (stereo not given) | x | 0 | 0 | -3 | 4 | -15 | 8 | i
O=C(CNS(=O)(=O)c1ccc(F)cc1)N1CCCCCC1 | 4 | -1 | 2 | 6 | -1 | x | -6 | i
COc1ccc(-n2c(=O)cc(N3CCCCCC3)[nH]c2=O)cc1 | -36 | 5 | 2 | -10 | -1 | -9 | -1 | i
CNC(=S)N1N=C(c2ccc(OC)cc2)CC1c1ccc(Cl)cc1Cl (stereo not given) | 15 | 1 | 0 | 0 | -3 | -8 | -6 | i
COc1ccccc1C(=O)NC(=O)Nc1cccc(Cl)c1 | -92 | -3 | -4 | 3 | 7 | -26 | 17 | i
COc1ccc(-c2cn(CCC(=O)O)c(-c3ccncc3)n2)cc1 | -15 | 0 | 8 | x | x | -9 | -11 | x
O=C1CC2(CCN(C(=O)c3ccc(Cl)cc3)CC2)Oc2ccccc21 | -6 | -3 | 2 | x | x | -13 | -1 | i
Cc1ccc(NC2=NCC(=O)N2C2CCCC2)cc1C | -11 | -1 | -2 | -9 | 8 | x | 11 | x
COc1cc(CC(=O)OCC(=O)NCC(C)C)cc(OC)c1OC | 14 | 3 | 3 | -6 | -2 | x | -7 | x
CCCCC1(CC)C(=O)NC(=O)NC1=Nc1ccc(OC)cc1 (stereo not given) | -12 | 2 | -1 | -5 | -6 | -9 | -13 | i
CC(C)c1nc2scc(-c3ccc(Cl)cc3)c2c(=O)n1N | 25 | 12 | -3 | -6 | -1 | 69 | 5 | i
COC(=O)Cn1cnc2c(nnn2-c2ccc(OC)cc2)c1=O | 4 | -1 | 4 | -5 | 5 | -11 | 16 | i
CSc1nc(N)n(-c2cc(C(F)(F)F)ccn2)n1 | -3 | 0 | 2 | 6 | -2 | -18 | -5 | i
Cc1cc(C)cc(-n2nnc(C(=O)NCc3ccco3)c2N)c1 | -69 | 1 | 1 | -7 | 24 | -16 | -2 | x
CCOC(=O)C1=CCC(c2ccccc2)N(S(=O)(=O)c2ccccc2)C1 (stereo not given) | 15 | -1 | -3 | x | x | -7 | x | x
O=S(=O)(Nc1cccnc1)c1cc(Cl)ccc1Cl | x | 4 | 8 | 4 | -7 | 7 | -4 | i
Cc1nn(C)cc1S(=O)(=O)N1CCCCC1C (stereo not given) | 9 | -1 | 1 | 1 | 6 | -21 | -6 | i
O=S(=O)(c1ccc(F)cc1)c1snnc1-c1ccccc1 | -13 | 12 | -10 | 3 | 5 | x | 67 | i
Cc1ccc(C(=O)Sc2cccccc2=O)cc1 | 20 | 14 | -9 | 43 | 12 | -68 | 28 | i
c1ccc(SCc2cn3cccnc3n2)nc1 | -14 | 1 | 5 | 6 | 4 | x | 8 | i
O=[N+]([O-])c1ccc(S(=O)(=O)Nc2ncccn2)cc1 | 1 | -3 | 0 | -6 | 9 | -13 | -12 | i
CC(=O)N1c2ccc(S(=O)(=O)N(C)CC(=O)Nc3ccccc3C)cc2CC1C (stereo not given) | 6 | 2 | 0 | x | x | 11 | -4 | i
Cc1c(C(=O)N2CCCCC2)c(S(=O)(=O)NCCc2ccc(Cl)cc2)c(C)n1C | 35 | 0 | 2 | -1 | 8 | 1 | -14 | i
Cc1cc(NC(=O)CSc2nc3ccccc3cc2C#N)no1 | -14 | -36 | -1 | -4 | 24 | -2 | 1 | i
COC(=O)[C@@H](NC(=O)CCc1nnc(-c2ccsc2)o1)C(C)C | -13 | 0 | 0 | -1 | -4 | -12 | -8 | i
COc1ccc(CNC(=O)COC(=O)c2cncc(Br)c2)cc1 | -6 | -6 | 1 | 17 | -6 | -10 | -4 | i
O=C(CCc1ccccc1)Nc1ccc(N2CCCCC2)cc1 | -29 | 4 | 5 | -9 | -10 | x | -8 | i
CS(=O)(=O)N1CCC(C(=O)N2CCC(Cc3ccccc3)CC2)CC1 | x | 3 | 1 | 3 | 3 | 1 | -6 | i
Cc1cc(=O)oc(C)c1C(=O)NCCN(C)Cc1ccccc1 | 5 | -4 | -6 | 7 | -14 | -2 | x | i
Cc1ccc(-n2c(SCC(=O)N/N=C/c3ccccc3C(=O)O)nnc2-c2ccc(Cl)cc2)cc1 | 4 | 4 | 6 | -2 | 3 | -7 | -5 | i
CCOc1ccc2nc(SCC(=O)Nc3cccc(S(=O)(=O)NC4=NCCCCC4)c3)[nH]c2c1 | 0 | -3 | -5 | 7 | 8 | -18 | -21 | i
Cc1cc(C)c(C(=O)/C=C/C=C/c2ccccc2)c(=O)[nH]1 | -37 | -6 | 4 | -1 | -1 | x | 1 | i
O=[N+]([O-])c1ccc2c(c1)C(N1CCOCC1)/C(=C/COc1ccc(Cl)cc1Cl)O2 (stereo not given) | x | 1 | -8 | -11 | 7 | x | 23 | i
N#Cc1cc2c(=O)n3ccccc3nc2n(Cc2cccnc2)c1=O | -17 | -2 | 6 | x | x | -17 | -9 | x
CCOc1ccc(CC(=O)NCCc2cnc[nH]2)cc1 | 7 | 6 | 5 | -3 | -6 | -23 | -7 | i
O=C(NC(=S)N1CCCC1)c1ccccc1F | x | 3 | 3 | x | x | -6 | -20 | x
CSc1cccc(NC(=O)C2C3C=CC4(O3)C2C(=O)N(CCN2CCOCC2)C4C(=O)NC2CCCCC2)c1 (stereo not given) | -1 | 1 | 2 | -14 | -6 | 9 | -12 | x
CN(CCCC(=O)O)S(=O)(=O)c1ccc2c(c1)C(=O)c1cc(S(=O)(=O)N(C)CCCC(=O)O)ccc1-2 | 5 | -2 | 2 | -2 | 22 | -2 | -1 | i
COc1ccccc1N1CCN(Cc2nc(N)nc(Nc3ccc(C)cc3)n2)CC1 | 32 | 5 | 0 | -16 | -21 | x | -3 | i
CCCNC(=O)NC(=O)COc1ccc2oc3ccccc3c2c1 | -163 | 3 | 1 | 0 | -4 | -15 | -3 | i
COc1ccc(C(=O)O)cc1Nc1cc(C)nc2ncnn12 | 7 | -1 | 1 | -4 | 8 | -10 | -16 | i
CCOC(=O)c1sc(=S)n(C)c1N | x | 5 | 0 | 0 | 4 | -9 | 10 | i
O=C(C1CC(=O)N(C2CCCCC2)C1)N1CCc2ccccc21 (stereo not given) | 7 | -7 | -1 | 0 | 3 | x | 3 | i
COC(=O)C(C)NC(=O)CNS(=O)(=O)c1ccc(F)cc1 (stereo not given) | 1 | 8 | 6 | -10 | -10 | -2 | -10 | i

Next entries:
SMILES | Env fusion inh | MT1-MMP act inh | MT1-MMP act inh RFP | eIF4H inh | PABP polyA inh | Yeast UUG start | CSC inhib | Rce1 inhib
COc1ccc(/C=N/n2c(SC)nnc(C(C)(C)C)c2=O)c(OC)c1 | x | -3 | 3 | -4 | 7 | -5 | -11 | i
Cc1cc(=O)oc(C)c1C(=O)N1CCN(C(c2ccccc2)c2ccccc2)CC1 | x | -7 | 0 | -1 | 5 | 2 | x | i
COc1ccc(C(=O)CC(=O)C(=O)Nc2ccc([N+](=O)[O-])cc2C)cc1 | -5 | 0 | 3 | 5 | -4 | -3 | 2 | i
Clc1ccc(-c2c(C3=NCCCN3)nnn2-c2ccc(Cl)cc2)cc1 | 16 | 0 | 1 | 2 | 3 | -13 | -4 | i
NC(=O)c1cc([N+](=O)[O-])ccc1NCCN1C(=O)c2ccc(C(=O)O)cc2C1=O | -23 | x | x | 0 | 7 | 7 | -11 | i
O=C(CCC(=O)c1cccs1)Nc1ncccc1O | -3 | 4 | 4 | x | x | -14 | -5 | i
C/C(=C\C(=O)c1sccc1Cl)N(C)C | -16 | 1 | 4 | -2 | 8 | x | -6 | x
COc1cccc(C(=O)N2CCC(n3nccc3NC(=O)C3CCOC3)CC2)c1 (stereo not given) | 2 | -1 | 2 | -4 | 7 | -21 | -6 | i
COc1nsnc1N1CCOCC1 | 7 | 3 | 4 | 10 | 2 | x | 0 | i
Cc1nn2cc(-c3cccc(Cl)c3)cnc2c1Br | -56 | -8 | -6 | -6 | 6 | x | 51 | i
CCCCNC(=S)NNC(=O)c1csc(C)c1C | 11 | 0 | 0 | -9 | -10 | x | -9 | i
CCOc1ccccc1N1Cc2cc(C)c(C)cc2C1 | -19 | -5 | -3 | 3 | -3 | -4 | 1 | i
CSc1ccc(/C=C(/NC(=O)c2ccco2)C(=O)N2CCCCC2)cc1 | -11 | -1 | -2 | -8 | -6 | -14 | -20 | i
CCOC(=O)C1CCN(C(c2cccc(OC)c2)c2sc3nc(C)nn3c2O)CC1 (stereo not given) | -17 | 8 | 3 | -10 | -14 | 13 | -8 | i

A different layout for part of the listing above.
mol: COc1cccc(C(=O)N2CCC(n3nccc3NC(=O)C3CCOC3)CC2)c1 (stereo not given)
  Env fusion inh: 2	MT1-MMP act inh: -1	MT1-MMP act inh RFP: 2	eIF4H inh: -4	PABP polyA inh: 7	Yeast UUG start: -21	CSC inhib: -6	Rce1 inhib: i

mol: NC(=O)c1cc([N+](=O)[O-])ccc1NCCN1C(=O)c2ccc(C(=O)O)cc2C1=O
  Env fusion inh: -23	MT1-MMP act inh: x	MT1-MMP act inh RFP: x	eIF4H inh: 0	PABP polyA inh: 7	Yeast UUG start: 7	CSC inhib: -11	Rce1 inhib: i

mol: COc1ccc(C(=O)CC(=O)C(=O)Nc2ccc([N+](=O)[O-])cc2C)cc1
  Env fusion inh: -5	MT1-MMP act inh: 0	MT1-MMP act inh RFP: 3	eIF4H inh: 5	PABP polyA inh: -4	Yeast UUG start: -3	CSC inhib: 2	Rce1 inhib: i

mol: Cc1cc(=O)oc(C)c1C(=O)N1CCN(C(c2ccccc2)c2ccccc2)CC1
  Env fusion inh: x	MT1-MMP act inh: -7	MT1-MMP act inh RFP: 0	eIF4H inh: -1	PABP polyA inh: 5	Yeast UUG start: 2	CSC inhib: x	Rce1 inhib: i
